Screening data as filed in PubChem.
HSV augment = increases HSV replication in cells; 0.005% of 220,000 active; maximum fold increase; HSV replication augmentation in cells, fold increase;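 active means peak rise of 1.5-fold or more in the series; inconclusive means self-fluorescent or not available for retest; tested in PC3 cells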;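 further: first round at 10 µM; read as green reporter fluorescence; hits show the peak of a series up to 25 µM; 1 = signal of infected wells without compound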
INS promoter inh = TRM-6 insulin promoter activity inhibition. inhibition, % at 2 µM. AID 1273. 0.9% of 130,000 active. TRM-6 cells (human fetal islet line), insulin promoter-eGFP reporter, imaging; reporter expression induced with tamoxifen;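 active means inhibition above the mean plus 3 SD, with well images judged a real hit on visual review, cut at about 60% in these data, passing the limit was not always enough; inconclusive means inhibition over the cutoff but images rejected on review; inactive means inhibition not above the cutoff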
RGS16-Gao HTS = RGS16-Galphao interaction regulator (human). O15492+P09471. bead-based flow cytometry RGS16-Galphao binding, fluorescence; actives lie on both sides. binding response (% of control), % at 10 µM. 0.38% of 220,000 active. AID 1441;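 active means below 25% or above 175%, edge rows of some plates excepted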;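 further: Galphao activated by GDP with aluminum fluoride before binding; 100% = wells without compound and 0% = beads without RGS; some results beyond the cut were filed as inactive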
PKD1 inh = blocks activity of human protein kinase D1 | Q15139 | PKD1 kinase fluorescence polarization assay | inhibition, %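 (about 10 µM by stock and volumes)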 | 0.056% of 200,000 active | AID 797;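 active means inhibition of 50% or more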;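 further: controls were vehicle for no effect and a reference inhibitor for full effect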
GALR2 ag = activates the human galanin receptor 2; 0.48% of 140,000 active; activation, %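 (tested at 5 µM)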; AID 803; GALR2-expressing cells, agonist activation read-out; O43603;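 active means above mean plus 3 SD of all compounds, about 5% in these data, not always enough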;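 further: 0% = vehicle buffer wells and 100% = reference agonist at full effect; tested in CHO reporter cells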
Target sequence (O43603 whole entry, looked up): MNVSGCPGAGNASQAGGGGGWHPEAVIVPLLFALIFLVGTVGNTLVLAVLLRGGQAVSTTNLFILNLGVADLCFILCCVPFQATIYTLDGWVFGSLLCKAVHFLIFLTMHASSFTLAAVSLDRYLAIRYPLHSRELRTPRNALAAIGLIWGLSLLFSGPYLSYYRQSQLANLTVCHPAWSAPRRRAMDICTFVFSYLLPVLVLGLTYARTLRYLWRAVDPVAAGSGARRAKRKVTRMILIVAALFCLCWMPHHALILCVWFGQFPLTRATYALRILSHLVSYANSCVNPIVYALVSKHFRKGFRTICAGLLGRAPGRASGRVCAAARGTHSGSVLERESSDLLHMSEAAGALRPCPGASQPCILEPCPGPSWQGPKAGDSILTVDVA
INS promoter inh cell count = further read-out of INS promoter inh, marked with its call; normalized cell count, %; measured here: cell count, toxicity; reference of the scale not given here;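 cells exposed to compound for 48 h; stained nuclei by imaging scaled within each plate; lower means fewer cells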
HSV augment primary fold = second read-out of HSV augment, no call of its own (marks repeat the call); fold increase; compound at 10 µM; measured here: primary screen fold increase 10 uM; tested in PC3 cells;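 GFP signal in the first replicate; 1 = infected wells without compound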
An asterisk follows results filed as active; i = inactive; ? = inconclusive; · = no result given; & = joins results of further samples. Not all compounds are listed (hit frequency here may not be typical).

structure,HSV augment,HSV augment primary fold,INS promoter inh,INS promoter inh cell count,RGS16-Gao HTS,PKD1 inh,GALR2 ag
O=C(C1CCCO1)N1CCC2(CC1)OCCO2 (stereo not drawn),i,0.87,-6,134,101,-2,-0.3
CC/C(=N\Nc1ccccc1)c1c(O)[nH]c(=O)[nH]c1=O,i,0.87,·,·,99,·,·
OCC#CC[N+]1(CC#Cc2ccccc2)CCCC1,i,1,·,·,100,0,·
CN1CC=C2C(C#N)=C(N)C(C#N)(C#N)C(c3ccncc3)C2C1 (stereo not drawn),i,1.2,-384,132,93,-4,-0.1
CC(C)CN1CCN(Cc2cccc3c2OCO3)CC1CCO (stereo not drawn),i,1,·,·,99,2,·
O=C(CNC1CCCC1)Nc1ccc(N2CCCCCC2)cc1,i,0.79,·,·,93,-7,·
CCOC(=O)c1ccc2c(c1)n(Cc1ccccc1)c(C)[n+]2CC,i,0.84,·,·,98,-7,·
O=C(c1cc(C(=O)NCc2ccccc2)c(=O)n(Cc2ccccc2)c1)c1cc(Cl)ccc1O,i,0.9,-46,55,96,-13,-1.3
O=[N+]([O-])c1cc([As](=O)(O)c2ccc(O)c([N+](=O)[O-])c2)ccc1O,i,0.99,·,·,96,·,·
COCCOC(=O)c1c(N)n(Cc2ccco2)c2nc3ccccc3nc12,i,1.1,16,206,·,-8,0.6
C=CCNC(=S)/N=C/c1c(O)[nH]c(=O)[nH]c1=O,i,0.99,·,·,100,-4,·
Cc1nn(CC(C)C)c(Cl)c1C(=O)O,i,0.95,·,·,104,4,·
Cc1nn(Cc2ccccc2Cl)c(Cl)c1C(=O)OCC(=O)NCc1ccco1,i,0.98,11,106,99,-5,1.2
Cc1c(/C=N/O)c2ccccc2n1C,i,0.9,6,156,103,5,-1.3
O=c1c2ccccc2[nH]c(=S)n1-c1ccc2c(c1)OCO2,·,·,·,·,101,0,-2.5
CCC(=NCc1ccc2c(c1)OCO2)c1c(O)n(C2CCCCC2)c(=O)[nH]c1=O,i,0.83,·,·,98,-10,-1.6
COc1ccccc1OCC#CCN1CCCC(C)C1 (stereo not drawn),i,1.1,·,·,104,-6,·
O=C(NC(c1ccc(Cl)cc1)P(=O)(Oc1ccccc1)Oc1ccccc1)OCc1ccccc1 (stereo not drawn),?,·,-26,117,90,7,-0.3
O=Cc1cn(CCCOc2ccccc2)c2ccccc12,i,0.88,7,129,97,-4,0.2
CC12CCC3C(CC=C4CC(O)CCC43C)C1C/C(=C\c1ccccc1F)C2=O (stereo not drawn),i,1.1,·,·,104,3,0.0
O=c1cccc2n1CC1CC2CN(Cc2cccc(Cl)c2Cl)C1 (stereo not drawn),i,0.79,·,·,103,-3,-0.9
CN1CCN(c2ccc(S(C)(=O)=O)cc2[N+](=O)[O-])CC1,i,0.94,24,148,107,0,-0.7
CN1CCN(C(=O)COc2ccc(C(C)(C)C)cc2Br)CC1,i,1,-66,149,101,0,-0.8
O=C(C1CCC(=O)N1Cc1ccccc1Cl)N1CCC2(CC1)OCCO2 (stereo not drawn),i,0.96,-23,118,101,1,0.2

The list goes on; the last 3 above are carried over.
structure,HSV augment,HSV augment primary fold,INS promoter inh,INS promoter inh cell count,RGS16-Gao HTS,PKD1 inh,GALR2 ag
CN1CCN(c2ccc(S(C)(=O)=O)cc2[N+](=O)[O-])CC1,i,0.94,24,148,107,0,-0.7
CN1CCN(C(=O)COc2ccc(C(C)(C)C)cc2Br)CC1,i,1,-66,149,101,0,-0.8
O=C(C1CCC(=O)N1Cc1ccccc1Cl)N1CCC2(CC1)OCCO2 (stereo not drawn),i,0.96,-23,118,101,1,0.2
O=C(NC1CCCCC1)Oc1cc2oc(=O)sc2cc1Cl,i,1,·,·,99,·,·
CCCCn1c(O)c(C(C)=Nc2ccc(C(=O)O)cc2)c(=O)[nH]c1=O,i,0.98,-12,68,101,0,-1.1
CN(C)c1ccc([P+](=O)c2ccc(N(C)C)cc2)cc1,i,1,36,74,139,1,·
CC(=O)c1ccc(OC(C)C)c(Cc2c(O)[nH]c(=S)[nH]c2=O)c1,i,1.1,·,·,79,-2,·
CCCCc1nc(N2CCNCC2)c(C#N)c2c1CSC(C)(C)C2,·,·,72,103,94,-9,-0.4
CSc1ncc(/C=C2/C(=O)NC(=O)N(c3ccc(C)cc3)C2=O)cn1,i,1,·,·,104,-3,·
CCN(CC)c1nc2c(C)cccn2c(=O)c1C=C1C(=O)NC(=O)NC1=O,i,0.97,-31,93,100,-1,·
O=C(c1ccc(Cl)cc1)C1CCCN(C2CCSCC2)C1 (stereo not drawn),i,0.87,·,·,102,0,·

Among those listed so far, 5 contain a carbonyl joined to an NH by a bond outside any ring:
structure,HSV augment,HSV augment primary fold,INS promoter inh,INS promoter inh cell count,RGS16-Gao HTS,PKD1 inh,GALR2 ag
O=C(CNC1CCCC1)Nc1ccc(N2CCCCCC2)cc1,i,0.79,·,·,93,-7,·
O=C(c1cc(C(=O)NCc2ccccc2)c(=O)n(Cc2ccccc2)c1)c1cc(Cl)ccc1O,i,0.9,-46,55,96,-13,-1.3
Cc1nn(Cc2ccccc2Cl)c(Cl)c1C(=O)OCC(=O)NCc1ccco1,i,0.98,11,106,99,-5,1.2
O=C(NC(c1ccc(Cl)cc1)P(=O)(Oc1ccccc1)Oc1ccccc1)OCc1ccccc1 (stereo not drawn),?,·,-26,117,90,7,-0.3
O=C(NC1CCCCC1)Oc1cc2oc(=O)sc2cc1Cl,i,1,·,·,99,·,·

Continuation.
structure,HSV augment,HSV augment primary fold,INS promoter inh,INS promoter inh cell count,RGS16-Gao HTS,PKD1 inh,GALR2 ag
CN(C)c1cccc2c(C#N)ccc(N(C)C)c12,i,1,87*,43*,111,4,·
CCC(C)NC(=O)c1c(N)n(CCCOC)c2nc3ccccc3nc12 (stereo not drawn),i,0.84,-47,87,95,0,16*
Cc1cccc(N2C(=O)NC(=O)/C(=C/c3ccc([N+](=O)[O-])o3)C2=O)c1,?,·,12,87,94,5,-1.5
O=C(Cc1ccccc1)Oc1ccc(N2C(=O)CCC2=O)cc1,i,0.98,19,74,95,-5,-0.1
Cc1cc(N2C(=O)C3CCCN3C2c2cccc(Cl)c2)no1 (stereo not drawn),i,0.84,-38,86,98,-12,-1.6
CN(C)CCN=Cc1c(O)n(-c2cccc(C(F)(F)F)c2)c(=O)[nH]c1=O,i,0.81,19,78,109,3,-1.2
CP(=O)(O)CCCN,i,1,·,·,101,-11,-1.5
O=P(Nc1c(Cl)cccc1Cl)(c1ccccc1)c1nc2c(s1)CCCC2 (stereo not drawn),i,1.1,19,126,92,-7,-2.8
CCOc1ccc(-n2c(-c3ccoc3)nc3ccccc3c2=O)cc1,i,0.8,-4,135,103,-2,-1.1
Cc1ccc2c(c1)C1CN(C)CCC1N2C(=O)Cn1nnc(-c2ccccc2F)n1 (stereo not drawn),i,1.1,·,·,101,-2,-0.8
O=C1N(CN2CCOCC2)c2ccccc2C1(O)c1c[nH]c2ccccc12 (stereo not drawn),i,0.89,27,86,93,7,-3.0
Cn1nc(-c2ccc(OCC(=O)N3CCN(Cc4ccccc4)CC3)cc2)c2ccccc2c1=O,i,1.1,-105,117,38&125,-9&4,-1.2&-1.6
CCOP(=O)(Cc1cc(C(C)=O)c(C)o1)OCC,i,1.1,·,·,99,·,·
O=C(c1n[nH]c(=O)c2ccccc12)N1CCC2(CC1)OCCO2,i,1.1,·,·,104,-7,·
CCN1CCN(c2ccc([N+](=O)[O-])cc2C=C2C(=O)NC(=O)NC2=O)CC1,i,1,68,47,83,-4,-1.3
COc1ccc2[nH]c(C)c(CCN3CCC(=O)C(C)C3C)c2c1 (stereo not drawn),i,0.91,·,·,82,-9,-2.6
Cc1nc2ncnn2c(C)c1CCC(=O)N1CCC2(CC1)OCCO2,i,0.76,·,·,86,-12,-0.6
N#CCCn1cc(C(=O)Nc2ccccc2Cl)c(-c2ccc([N+](=O)[O-])cc2)n1,i,1.1,-27,72,36,-3,-0.8
COc1ccc(OC)c(-n2c(O)c(/C=C3\C(C)=Nc4ccccc43)c(=O)[nH]c2=O)c1,i,1.1,·,·,91,·,·
CN1C[C@H](CNC(=O)OCc2ccccc2)C[C@@H]2c3cccc4c3c(cn4C)C[C@H]21,i,1.1,-50,113,100,6,1.2
CCOP(=O)(Cc1cc(C(=O)CC)c(C)o1)OCC,i,0.93,·,·,95,·,·
C[N+]12CCC(CC1)C(C(O)(c1cccc(Cl)c1)c1cccc(Cl)c1)C2 (stereo not drawn),i,0.98,·,·,100,·,·
Nc1ccccc1C(=O)OC1CSC1,i,1.1,16,80,97,5,-0.9
CNC(=S)N(C)CCc1cc2c(c(OC)c1C=C1C(=O)NC(=O)NC1=O)OCO2,i,1.1,·,·,103,·,·
Cc1sc2c(c1C)C(c1ccc(C(C)(C)C)cc1)=NCC(=O)N2CC(=O)Nc1nccs1,i,0.62,-48,103,102,-10,0.2
CCCN(CC#CCO)CCC,i,1,-92,142,100,-12,-2.6
CCOc1ccc(N=Cc2c(O)n(C(C)(C)C)c(=O)[nH]c2=O)cc1,i,1,-50,96,101,-1,-3.1
NCCc1nc2ccccc2s1,i,1,58,92,108,-2,·
[N-]=[N+]=CC(=O)OC[C@H](N)C(=O)O,i,0.74,36,149,100,-8,-0.4
CC(=O)C1=C(C)OC(N)=C(C(=O)OC(C)C)C12C(=O)Nc1ccccc12 (stereo not drawn),i,0.85,100*,40*,102,-6,-1.7
CCC(C(=O)N1CCC2(CC1)OCCO2)c1ccccc1 (stereo not drawn),i,0.91,7,107,103,-11,-2.5
COc1cccc(CNCCc2c[nH]c3ccccc23)c1OC,i,1,·,·,91,-2,·
COC(=O)OCC12CCC(O1)C1(C)C(=O)OCC21 (stereo not drawn),i,0.92,12,95,100,-5,-0.9
CC(C(=O)c1c[nH]c2ccccc12)N1CCSCC1 (stereo not drawn),i,1.1,2,137,128,2,-3.9
CCC(=O)N1N=C2C3CCN(CC3)C2C1c1ccc(C)cc1 (stereo not drawn),i,0.86,22,123,162,-2,0.0
O=C(CSC1c2ccccc2-c2ccccc21)N/N=C/c1ccccc1,i,0.76,61,60,106,8,-3.3
CN1CCN(Cc2nc3ccccc3n2C)CC1,i,0.91,·,·,101,-10,-0.7
CCN1CCN(c2ccc(N)c(C)c2)CC1,i,0.91,·,·,99,-4,·
CSc1ccccc1C(=O)C1CCCN(Cc2cccc(C)n2)C1 (stereo not drawn),i,0.82,·,·,104,-3,·
O=c1[nH]c(=S)n(C2CC2)c(O)c1C=NCCN1CCOCC1,i,0.92,·,·,95,·,·
